ALR H2O2 inh – inhibitors of human sulfhydryl oxidase ALR | inhibition, % (concentration not given with the values) | purified ALR, DTT oxidation, H2O2 HRP-luminol luminescence | AID 485317 | 290,000 tested, 3.8% active | P55789;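 active = mean and each replicate at 75% or more; inconclusive = only one of the two met; inactive = neither met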;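 also: stock transfer was 7.5 nL into about 7.5 µL; 0% = neutral wells and 100% = wells with inactivated enzyme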
Target sequence (P55789 whole entry, looked up): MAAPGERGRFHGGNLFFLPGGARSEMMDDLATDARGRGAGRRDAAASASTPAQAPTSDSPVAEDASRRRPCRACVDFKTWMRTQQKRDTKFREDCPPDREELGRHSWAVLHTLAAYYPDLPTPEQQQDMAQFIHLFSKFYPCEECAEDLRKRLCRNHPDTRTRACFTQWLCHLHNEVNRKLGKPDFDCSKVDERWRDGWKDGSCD
T cruzi repl – T. cruzi replication inhibition; inhibition, % (no concentration beside the values); T. cruzi beta-gal in NIH3T3, luminescence, 90 h; 300,000 tested, 1.4% active; AID 1885;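 active = mean inhibition across valid replicates above about 55%, limit read from the data; inconclusive = mean below that limit but half or more replicates reach it; inactive = mean below it, under half of replicates reach it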;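 also: signal also drops with host cell toxicity which is not excluded here; 0% = plate median of DMSO wells and 100% = zero luminescence signal; higher percent means less beta-gal luminescence so fewer parasites; stock transfer was 50 nL into about 50 µL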
Beta cell apopt – blocks beta cell apoptosis. protection from apoptosis, % (no concentration beside the values). 300,000 tested, 0.8% active. AID 435005. INS-1E cytokine-induced death, ATP luminescence, 48 h; percent of positive-control rescue, neutral wells zero;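 active = all replicates at 75% or more, or half of them and the mean; inconclusive = half reach 75% but not the mean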;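 also: 0% = cytokine-treated negative control wells and 100% = positive control rescue; higher means more ATP so stronger rescue from cytokine killing; wells of about 40 µL received 100 nL stock; the first replicate is given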
Ecoli rRNA inh – selective bacterial rRNA inhibition in E. coli. 350,000 tested, 1.6% active. GFP signal change (wild-type ribosome), % (no concentration beside the values). E. coli WT GFP vs humanized-ribosome RFP mutants, fluorescence, 24 h; active compounds read low; DMSO median 0, no signal -100;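 active = significant combined selectivity score with lowered wild-type GFP, culture density cut under 30%, mutant RFP and density less affected; inactive = any of these conditions unmet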; also: one replicate is shown; some compounds called inactive have numbers as strong as hits
RanGTP-Impb inh – inhibitors of RanGTP-importin-beta interaction, primary screen, biochemical, FRET, CFP-Ran, YFP-importin-beta, homogeneous; cell-free CFP-Ran/YFP-importin-beta FRET ratio; inhibition, % (no concentration beside the values); 300,000 tested, 1.1% active; AID 2216;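 active = most replicates above 15%; inconclusive = exactly half above 15%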;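 also: 0% = DMSO wells and 100% = Ran loaded with GDP instead of GTP; wells of about 40 µL received 100 nL stock; the first replicate is given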
Calb FLC – C. albicans growth modulation with fluconazole; C. albicans CaCi-2 (fluconazole-resistant clinical isolate) + fluconazole, Alamar Blue growth, 48 h; growth inhibition, % (test concentration not listed); 300,000 tested, 0.57% active;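 active = most replicates above 75%; inconclusive = exactly half above 75%; inactive = most below 75%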;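 also: all wells also contain fluconazole at 8 µg/ml as a sub-toxic cotreatment; 0% = median of DMSO wells and 100% = median of geldanamycin control wells; wells of about 8 µL received 7.5 nL stock; the first replicate is given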
FGF22 binding – binders of recombinant human FGF22 by thermal shift. Q9HCT0. SYPRO orange fluorescence; percent of sucrose octasulfate shift, DMSO zero. calls only at 9.99 µM. 340,000 tested, 1.5% active;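 active = melting point raised past a set limit in the mean and every replicate; inconclusive = no clear call; three in four hits are not shown here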
Target sequence (Q9HCT0 whole entry, looked up): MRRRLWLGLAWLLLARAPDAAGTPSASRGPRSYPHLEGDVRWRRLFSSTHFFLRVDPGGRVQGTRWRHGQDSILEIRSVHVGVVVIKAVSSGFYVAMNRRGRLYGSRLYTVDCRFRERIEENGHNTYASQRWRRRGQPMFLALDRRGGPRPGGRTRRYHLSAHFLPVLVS
AF4-AF9 inh – inhibitors of human MLL-AF4/AF9 interaction. P42568. AlphaScreen, biotin-AF4 peptide binding to FLAG-AF9. inhibition, % at 10 µM. 350,000 tested, 0.47% active. AID 651704;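 active = every replicate reaching a set inhibition limit, whatever the replicate mean, cut at about 25% in these data; inconclusive = mean inhibition reaches that limit but some replicates miss it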;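 also: 0% = plate neutral control median and 100% = total signal loss; the record names both 10 and 1 µM as test concentration; the first replicate is given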
Target sequence (P42568 whole entry, looked up): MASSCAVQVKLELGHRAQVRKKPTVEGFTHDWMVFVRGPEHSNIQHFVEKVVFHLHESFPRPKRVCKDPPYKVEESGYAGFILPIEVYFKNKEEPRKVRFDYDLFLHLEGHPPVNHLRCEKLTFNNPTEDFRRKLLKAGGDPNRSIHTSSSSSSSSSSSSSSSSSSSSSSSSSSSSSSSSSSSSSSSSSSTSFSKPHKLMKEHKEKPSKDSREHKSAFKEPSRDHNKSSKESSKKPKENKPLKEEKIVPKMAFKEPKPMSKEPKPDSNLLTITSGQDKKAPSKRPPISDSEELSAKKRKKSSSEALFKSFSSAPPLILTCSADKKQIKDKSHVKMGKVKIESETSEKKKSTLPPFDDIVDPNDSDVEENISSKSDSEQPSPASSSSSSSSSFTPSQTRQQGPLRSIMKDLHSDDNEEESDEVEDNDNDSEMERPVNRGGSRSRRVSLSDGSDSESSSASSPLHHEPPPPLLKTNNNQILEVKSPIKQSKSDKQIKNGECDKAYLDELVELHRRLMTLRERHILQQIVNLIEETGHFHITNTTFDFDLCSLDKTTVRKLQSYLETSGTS
Ecoli rRNA inh OD600 – recorded beside Ecoli rRNA inh, whose call it bears; OD600 change, %; measured here: OD600 growth;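 optical density of the mix in the first replicate; 0 = DMSO median and -100 = no signal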
Ecoli rRNA inh RFP – further read-out of Ecoli rRNA inh, marked with its call; RFP signal change, %; measured here: RFP humanized mutant strains;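 first replicate; 0 = DMSO median and -100 = no signal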
Active calls of the source: *; i = inactive; ? = inconclusive; . = no result given. Some of the compounds tested. The share of hits here may be higher or lower than overall.

SMILES	ALR H2O2 inh	T cruzi repl	Beta cell apopt	Ecoli rRNA inh	Ecoli rRNA inh OD600	Ecoli rRNA inh RFP	RanGTP-Impb inh	Calb FLC	FGF22 binding	AF4-AF9 inh
Cc1ccc(NC(=S)N=Nc2c(O)[nH]c3ccccc23)cc1	-3	68*	.	5	6	-1.5	-0.8	14	i	0.0
O=C(CCN1CCOCC1)NNC(=O)c1ccc(Cl)c([N+](=O)[O-])c1	-15	.	-7	-5	12	-4.8	.	.	i	-2.0
CCOc1cc(N2CCOCC2)c(OCC)cc1NC(=O)CN1C(=O)N(C)C2(CCCCC2)C1=O	.	.	-4	3	9	-1.3	.	.	i	-7.8
Cc1cc(C(=O)N/N=C/c2sccc2C)no1	-7	-1	-10	.	.	.	-0.3	12	.	.
CCOC(=O)c1cnn(-c2ccccc2)c1NC(=O)C(F)(F)C(F)(F)C(F)(F)F	-3	-5	10	.	.	.	-0.9	-6	.	.
Cc1ccc(S(=O)(=O)N2CCCCC2)cc1C(=O)NCCC1=CCCCC1	0	14	4	6	5	-0.1	-2.0	3	i	-0.2
CCOC(=O)c1c(NC(=O)CN2CCCCC2)sc2c1CCN(C(=O)OCC)C2	-1	60*	10	-38*	-18*	-6.6*	6.1	-24	i	11
O=C(c1ccc2c(c1)OCO2)C1CCCN(Cc2c(F)ccc(F)c2F)C1 (stereo not given)	-1	16	0	-7	-7	2.8	?	-28	i	2.0
O=C(/C=C/N1CCN(Cc2ccccc2)CC1)C(F)(F)F	.	-2	-2	5	10	-4.0	5.2	?	i	-0.7
Cc1cc(=O)n2ccsc2n1	.	-4	3	15	17	-3.2	9.5	-4	i	-0.1
N#CCc1ccc(Oc2ccc([N+](=O)[O-])cn2)cc1	-8	-2	-7	8	6	3.8	2.0	4	i	-4.5
O=C(O)CN1CCCCC1	-9	-3	-3	16	3	3.7	3.9	0	i	1.5
Cn1nnc2c[n+](CC(=O)c3ccc(Cl)cc3)cc(Br)c21	91*	8	-7	-15	-6	8.4	4.7	-1	i	2.3
CC1CCN(CCCNC(=O)C2CC(=O)N(CCc3ccccc3)C2)CC1 (stereo not given)	0	2	-1	9	14	4.5	-0.6	-7	i	0.0
O=C(NNC(=S)NC(=O)c1cccs1)c1ccc(O)cc1	73	.	-1	-8	-48	0.9	.	-9	i	-0.7
CCOC(=O)c1sc2nc(CC(C)C)c3c(c2c1N)CCC3	-2	27	-1	.	.	.	5.2	1	.	.
COc1ccccc1C1CC(=O)NC(C)=C1C(=O)OC(C)C (stereo not given)	1	-16	3	3	3	-1.4	4.6	14	i	-1.0
Cc1ccc(S(=O)(=O)N2CCC(C(=O)N/N=C/c3cccn3C)CC2)cc1	-6	.	3	7	10	16	.	.	i	14
CCOc1ccc(C(c2c(C)[nH][nH]c2=O)c2c(C)[nH][nH]c2=O)cc1OC	8	-14	-9	.	.	.	4.1	-1	.	.
N#Cc1ccc(CN2CCN(CC(=O)Nc3ccccc3C(=O)NC3CC3)CC2)cc1	-3	.	8	.	.	.	.	.	i	-0.9
CC1CCCCC1NC(=O)Cn1cc([N+](=O)[O-])ccc1=O (stereo not given)	-10	.	-3	6	15	1.0	.	.	i	1.0
CCOC(=O)C1CCN(C(=O)NS(=O)(=O)c2ccc(C)cc2)CC1	-12	1	-1	27	24	-0.6	0.0	3	.	-1.7
CN(CC(=O)Nc1ccccc1C(F)(F)F)C(=O)c1cc2c(s1)CCCCC2	-6	-6	-1	3	5	-3.5	1.9	-8	i	-0.4
O=C1C2CCCN2C(c2ccc(Cl)cc2)N1c1nccs1 (stereo not given)	-14	0	1	.	.	.	2.0	-12	.	.
Cc1cccc2c1c(N=NC(N)=S)c(O)n2C1OC(CO)C(O)C(O)C1O (stereo not given)	.	-12	-4	3	6	0.7	3.2	-10	i	-3.8
CN(C)S(=O)(=O)c1ccc(N2CCCC2)c(C(=O)N2CCN(c3ccc([N+](=O)[O-])cc3)CC2)c1	-6	19	8	12	11	1.1	2.6	-6	i	3.9
Cc1cccc(NC(=O)CC(C)S(=O)(=O)c2ccc3c(c2)NC(=O)CO3)c1C (stereo not given)	3	1	0	17	12	-1.2	1.6	-3	i	-0.7
Cc1ccc2nc(Cl)c(C3CC(c4cccs4)=NN3S(C)(=O)=O)cc2c1 (stereo not given)	-3	8	1	6	20	2.5	-0.6	33	i	-1.1
COC(=O)C1C(=O)NCC1c1ccccc1 (stereo not given)	-7	-9	-1	.	.	.	-31	11	.	.
O=S(=O)(c1ccc(F)cc1)N1CCN=C1SCc1cccnc1	98*	1	-3	7	-3	-1.2	-2.9	17	i	-1.4
CCOC(=O)Nc1ccc(S(=O)(=O)Nn2cnnc2)cc1	-11	-19	.	17	8	-0.2	2.3	37	i	-2.1
O=C(NC(=O)N1CCN(c2ccc(F)cc2)CC1)c1ccccc1	3	-6	-9	.	.	.	0.2	-8	.	.
COc1cc(S(=O)(=O)N(C)C)ccc1Br	-10	-1	-4	.	.	.	.	9	.	.
CC1CN(C(=S)SCC(=O)c2ccc(Cl)cc2)CC(C)O1 (stereo not given)	3	18	5	11	7	-7.4	-4.4	-62	i	2.0
CC(=O)c1ccc(-n2nncc2-c2ccc([N+](=O)[O-])cc2)cc1	.	-1	-4	8	-4	-1.2	1.8	-4	i	2.2
C=CCC[C@H](Cc1ccc(F)cc1)C(=O)OC[C@@H](C)NC(=O)[C@H](CC=C)CC(=O)NCCO	1	.	4	5	4	5.0	.	.	i	2.8
Cc1ccccc1-n1nnnc1SCC(=O)NCC1CCCO1 (stereo not given)	-12	-7	-6	2	4	-1.7	-1.1	-8	i	-3.4
O=C1CSC(c2nn(-c3ccccc3)cc2-c2cc3ccccc3oc2=O)N1Cc1ccco1 (stereo not given)	3	17	2	.	.	.	5.3	35	.	.
CC(C)c1c(C(=O)N/N=C/c2ccc(OCc3ccc(F)cc3)cc2)nnn1-c1nonc1N	3	16	3	1	18	0.8	-1.2	6	i	0.1
O=C(Nc1ccc(Cl)c([N+](=O)[O-])c1)ONC1=NCCCCC1	22	-11	-5	-17	-16	1.7	-0.8	-4	.	1.4
CN(CCCC(=O)NCc1ccco1)S(=O)(=O)c1ccccc1	-3	-21	-1	2	-4	-6.6	?	-11	i	3.0
C=CCc1cc(Cl)ccc1OCCN1CC(C)OC(C)C1 (stereo not given)	-1	-2	-7	-45	-40	-17	-0.6	-6	i	4.2
CC(=O)Nc1ccc(NS(=O)(=O)c2ccc(C)cc2)c([N+](=O)[O-])c1	2	31	-2	7	7	2.3	-0.8	-2	.	-6.4
COc1c(Cl)cc(Cl)cc1/C=C/C(=O)c1ccc(NC(=O)c2cccs2)cc1	-8	43	23	-17	-2	28	1.6	10	i	-2.3
CN1CCN(c2ccc(NC(=O)c3ccc4c(c3)OCCO4)cc2)CC1	-4	20	-2	8	3	-1.3	-3.2	23	i	3.4
CC(=O)Nc1ccc(NC(=O)C(C)Sc2nnc(-c3cccs3)o2)cc1 (stereo not given)	-4	-15	5	4	2	-6.1	-0.9	-25	i	-16
CCc1ccc(CNC(=O)C2CC(=O)N(CCc3ccc(C)cc3)C2)cc1 (stereo not given)	2	13	-3	.	.	.	-1.9	14	.	.
COc1ccc(C)cc1N(C(=O)c1ccc(F)cc1)c1nc2ccccc2s1	-13	31	11	.	.	.	-4.0	46	.	.
CCN(CC)C(=O)CSc1nnc(-c2ccccc2)n1N	-4	-8	-3	.	.	.	-0.3	6	.	.
CC1CC(C)CN(C(=O)Cn2cc(C=O)c3ccccc32)C1 (stereo not given)	-2	7	-3	0	4	-0.3	4.4	4	i	-14
CCOc1cc(C(=S)N2CCCCC2)ccc1OCC(=O)NCc1ccccc1	35	16	-5	-2	-4	0.7	-0.2	-17	.	.
CCOC(=O)C1CCCN(C(=O)c2ccc(S(=O)(=O)N3CCCC3)cc2)C1 (stereo not given)	.	3	.	0	-7	-2.3	0.1	-4	i	9.3
CN(C)CCCNc1oc(-c2ccc(Cl)cc2)nc1C#N	18	3	1	.	.	.	2.5	-3	.	.
CC1(C)Cc2c(sc(NC(=O)c3ccco3)c2C(=O)O)CO1	9	-18	-2	-6	-3	6.4	-1.1	-6	i	0.0
O=C1CC(c2ccccc2)Oc2cc(O)cc(O)c21 (stereo not given)	1	-26	.	.	.	.	-0.5	0	i	2.0

In the list so far, these have a thiophene ring, fused or not.
SMILES	ALR H2O2 inh	T cruzi repl	Beta cell apopt	Ecoli rRNA inh	Ecoli rRNA inh OD600	Ecoli rRNA inh RFP	RanGTP-Impb inh	Calb FLC	FGF22 binding	AF4-AF9 inh
Cc1cc(C(=O)N/N=C/c2sccc2C)no1	-7	-1	-10	.	.	.	-0.3	12	.	.
CCOC(=O)c1c(NC(=O)CN2CCCCC2)sc2c1CCN(C(=O)OCC)C2	-1	60*	10	-38*	-18*	-6.6*	6.1	-24	i	11
O=C(NNC(=S)NC(=O)c1cccs1)c1ccc(O)cc1	73	.	-1	-8	-48	0.9	.	-9	i	-0.7
CCOC(=O)c1sc2nc(CC(C)C)c3c(c2c1N)CCC3	-2	27	-1	.	.	.	5.2	1	.	.
CN(CC(=O)Nc1ccccc1C(F)(F)F)C(=O)c1cc2c(s1)CCCCC2	-6	-6	-1	3	5	-3.5	1.9	-8	i	-0.4
Cc1ccc2nc(Cl)c(C3CC(c4cccs4)=NN3S(C)(=O)=O)cc2c1 (stereo not given)	-3	8	1	6	20	2.5	-0.6	33	i	-1.1
COc1c(Cl)cc(Cl)cc1/C=C/C(=O)c1ccc(NC(=O)c2cccs2)cc1	-8	43	23	-17	-2	28	1.6	10	i	-2.3
CC(=O)Nc1ccc(NC(=O)C(C)Sc2nnc(-c3cccs3)o2)cc1 (stereo not given)	-4	-15	5	4	2	-6.1	-0.9	-25	i	-16
CC1(C)Cc2c(sc(NC(=O)c3ccco3)c2C(=O)O)CO1	9	-18	-2	-6	-3	6.4	-1.1	-6	i	0.0

Source: PubChem BioAssay
